ALR H2O2 inh: inhibitors of human ALR sulfhydryl oxidase, primary screen, biochemical, H2O2 detection, HRP-luminol luminescence, single point; purified ALR, DTT oxidation; inhibition, % (concentration not given with the values); FAD-linked sulfhydryl oxidase ALR (Homo sapiens), P55789; 290,000 tested, 3.8% active; AID 485317, 2010;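 active = mean and each replicate at 75% or more; inconclusive = only one of the two met; inactive = neither met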;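 note: stock transfer was 7.5 nL into about 7.5 µL; 0% = neutral wells and 100% = wells with inactivated enzyme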
Target sequence (P55789 whole entry, looked up): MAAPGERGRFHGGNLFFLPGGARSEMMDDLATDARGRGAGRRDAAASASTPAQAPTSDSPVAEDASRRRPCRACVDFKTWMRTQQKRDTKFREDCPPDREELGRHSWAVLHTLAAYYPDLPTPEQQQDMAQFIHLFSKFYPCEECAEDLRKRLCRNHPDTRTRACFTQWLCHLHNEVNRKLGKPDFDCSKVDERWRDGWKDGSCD
HNF4A DNA FP: change in binding of human HNF4A to DNA, primary screen, biochemical, fluorescence polarization, FITC-DNA. 1 h. activity change, % at 10 µM. 360,000 tested, 0.3% active; in the data active = activity change above about 30%, passing the limit was not always enough;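 note: controls were the assay level and a saturating level of protein; the project sought stronger binding though the title names inhibitors; some compounds called inactive have numbers as strong as hits; positive values seem to mean higher polarization but the record does not say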
Target sequence (P41235 whole entry, looked up): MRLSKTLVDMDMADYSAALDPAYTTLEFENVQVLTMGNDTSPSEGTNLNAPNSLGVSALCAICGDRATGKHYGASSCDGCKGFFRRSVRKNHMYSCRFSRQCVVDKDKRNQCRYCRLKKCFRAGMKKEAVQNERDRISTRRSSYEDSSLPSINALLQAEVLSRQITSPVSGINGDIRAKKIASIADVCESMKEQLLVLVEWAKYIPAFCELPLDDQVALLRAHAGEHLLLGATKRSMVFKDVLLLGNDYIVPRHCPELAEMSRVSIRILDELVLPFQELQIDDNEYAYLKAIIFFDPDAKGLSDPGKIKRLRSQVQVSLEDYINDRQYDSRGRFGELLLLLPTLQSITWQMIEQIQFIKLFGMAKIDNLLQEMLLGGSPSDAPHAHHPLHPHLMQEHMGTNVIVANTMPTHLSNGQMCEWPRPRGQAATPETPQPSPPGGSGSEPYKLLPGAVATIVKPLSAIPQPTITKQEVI
rRNA inh HTS: reduced GFP signal of wild-type E. coli, primary screen, bacterial rRNA inhibitor project, GFP/RFP fluorescence, OD600, single point; E. coli WT GFP vs humanized-ribosome RFP mutants, 24 h; stronger effect = lower value; DMSO median 0, no signal -100; GFP signal change (wild-type ribosome), % (concentration not given with the values); AID 720706, 2013; 350,000 tested, 1.6% active;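 active = significant combined selectivity score with lowered wild-type GFP, culture density cut under 30%, mutant RFP and density less affected; inactive = any of these conditions unmet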; note: one replicate is shown; some compounds called inactive have numbers as strong as hits
MLL AF4-AF9 inh: inhibitors of AF4 peptide binding to AF9, primary screen, biochemical, AlphaScreen, biotin-AF4 peptide, FLAG-AF9, single point; inhibition, % at 10 µM; 350,000 tested, 0.47% active; Protein AF-9 (Homo sapiens), P42568;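 active = every replicate reaching a set inhibition limit, whatever the replicate mean, cut at about 25% in these data; inconclusive = mean inhibition reaches that limit but some replicates miss it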;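 note: 0% = plate neutral control median and 100% = total signal loss; the record names both 10 and 1 µM as test concentration; the first replicate is given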
Vif TR-FRET: inhibitors of Vif binding to APOBEC3G peptide, primary screen, biochemical, TR-FRET, GST-Vif 1-94, biotin-A3G peptide, dose response retest (AID 1117319). Virion infectivity factor (Human immunodeficiency virus type 1 group M subtype B (isolate …. TR-FRET GST-Vif / biotin-A3G peptide binding; higher % means a stronger effect; test concentration not given here; strong numbers were not always called active. inhibition, %; hits with a dose series show IC50 in µM. 260,000 tested, 0.57% active;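 active = above the screen mean plus three standard deviations and confirmed in dose response; inconclusive = results disagree or hit not tested in dose response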;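 note: Vif residues 1-94 fused to GST binding biotinylated APOBEC3G peptide 110-148; 0% = full assay without inhibitor and 100% = GST in place of GST-Vif; retest series ran down from 100 µM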
E coli growth: E. coli growth inhibition, primary screen, OD600. Escherichia coli growth, 23 h; stronger effect = lower value. OD600 absorbance (concentration not given with the values). 330,000 tested, 0.21% active;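 active = OD600 absorbance below the run mean of sample wells minus 3.6 SD, in any replicate, cut at about 0.56 in these data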;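 note: stock transfer was 300 nL into about 60 µL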
FGF22 binding: binders of human FGF22 protein, primary screen, FGF22 synaptogenesis inhibitor project, biophysical, thermal shift, single point | 340,000 tested, 1.5% active | recombinant FGF22 thermal shift, SYPRO orange fluorescence; percent of sucrose octasulfate shift, DMSO zero | calls only at 9.99 µM | Fibroblast growth factor 22 (Homo sapiens), Q9HCT0;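 active = melting point raised past a set limit in the mean and every replicate; inconclusive = no clear call; three in four hits are not shown here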
Target sequence (Q9HCT0 whole entry, looked up): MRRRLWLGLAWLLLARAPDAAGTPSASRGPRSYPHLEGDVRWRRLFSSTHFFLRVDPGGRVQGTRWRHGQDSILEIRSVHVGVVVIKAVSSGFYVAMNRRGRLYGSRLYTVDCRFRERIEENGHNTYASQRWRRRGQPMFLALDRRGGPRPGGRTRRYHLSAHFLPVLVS
rRNA inh HTS OD600: further read-out of rRNA inh HTS, marked with its call; OD600 change, %; measured here: OD600 growth;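 optical density of the mix in the first replicate; 0 = DMSO median and -100 = no signal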
rRNA inh HTS RFP: further read-out of rRNA inh HTS, marked with its call; RFP signal change, %; measured here: RFP humanized mutant strains;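 first replicate; 0 = DMSO median and -100 = no signal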
* = called active by the depositor; i = inactive; u = inconclusive; x = no result given; & = joins results of further samples.

Structure	ALR H2O2 inh	Vif TR-FRET	HNF4A DNA FP	MLL AF4-AF9 inh	rRNA inh HTS	rRNA inh HTS RFP	E coli growth	FGF22 binding	rRNA inh HTS OD600
Cc1ccc(NC(=O)COC(=O)COc2cccc3c2OC(C)(C)C3)c(C)c1	-3	0%	-2.5	3.8	5	-1.7	0.69	i	-1
CCSc1ncccc1-c1nc2ccccc2[nH]1	72	20%	4.7	x	x	x	0.72	x	x
CN(C)S(=O)(=O)c1ccc(C(=O)OCC2CCCO2)cc1 (centres undefined)	-1	-7%	-1.8	-0.2	8	-0.5	0.7	i	10
Cc1cc(=O)oc2cc(NC(=O)C3COc4ccccc4O3)ccc12 (centres undefined)	-4	4%	1.0	x	x	x	0.7	x	x
Cc1nc(-c2ccccc2)sc1C(=O)CSc1ccc(F)cc1	x	-8%	-1.0	x	x	x	0.78	x	x
COCC(=O)N1CCCCN2[C@@H](CO)[C@@H](c3ccc(-c4cccc(C)c4)cc3)[C@@H]2C1	x	x	x	-5.4	-1	-0.4	x	i	1
CCS(=O)(=O)NCCCCc1ccccc1	x	-5%	2.5	x	x	x	0.73	x	x
C[C@H](CO)N1C[C@H](C)[C@H](CN(C)S(=O)(=O)c2ccccc2)Oc2ccc(NC(=O)Nc3ccccc3)cc2C1=O	x	x	x	0.2	-2	-0.8	x	i	-2
CCOC(=O)C1C(=O)C=C(N2CCOCC2)CC1c1cccc(OC)c1 (centres undefined)	4	-1%	-0.7	x	x	x	0.7	x	x
CNc1ccc(C(=O)OCC(=O)NCc2ccc3c(c2)OCO3)cc1[N+](=O)[O-]	-2	-5%	6.8	1.4	10	1.1	0.66	i	10
CCOC(=O)C1CCCN(CC(=O)NC2CC2)C1 (centres undefined)	7	1%	10	x	x	x	0.73	x	x
O=C(Nc1ccc2ccccc2c1)c1ccc2[nH]c(=O)c(=O)[nH]c2c1	x	10%	1.2	4.0	0	-22	0.65	i	10
O=C(c1ccc(Br)o1)N(Cc1ccccc1)Cc1ccccc1	1	x	4.2	1.7	-32	-29	0.67	i	-41
CN(CC(=O)Nc1ccccc1C(F)(F)F)C(=O)CCc1nc2ccccc2c(=O)[nH]1	-1	-4%	-2.5	0.7	7	0.0	0.67	i	4
O=c1c2ccccc2[nH]c(=S)n1CCCN1CCN(C2CCCCC2)CC1	22	7%	0.2	x	x	x	0.71	x	x
Cc1cc(C)cc(NC(=O)C2CCN(S(=O)(=O)c3ccc4c(c3)NC(=O)C(C)S4)CC2)c1 (centres undefined)	0	x	4.0	-2.4	8	6.1	0.69	i	-21
Cc1c(C(=O)Nc2c(F)cccc2F)sc2ncnc(N3CCN(c4ccccc4)CC3)c12	1	-5%	-5.0	1.4	-12	2.2	0.66	i	-9
CC(=O)Nc1cccc(C(=O)/C=C/c2ccco2)c1	-2	u	-0.4	x	x	x	0.68	x	x
COc1ccc(OCc2nnc(SCc3ccc(C(=O)O)cc3)o2)cc1	-7	-1%	0.0	1.3	-10	-2.6	0.66	i	-18
Cc1cccc(OCC(=O)Nc2ccc3c(C)cc(=O)oc3c2)c1	4	-8%	-0.1	x	x	x	0.68	x	x
Cc1ccccc1NC(=O)CSc1nnc2ccc(-c3ccccn3)nn12	-3	-11%	-0.2	-1.9	2	-3.8	0.65	i	3
COc1ccc(C)cc1NC(=O)CCNC(=O)Cn1ccc2ccccc2c1=O	-1	-5%	-1.1	-7.9	5	0.2	x	x	-7
COCCNc1nc(Cl)c(C#N)s1	-10	-12%	2.6	-0.6	3	-1.6	0.69	i	7
Cc1ccc(NC(=O)CCN2C(=O)C3CC=CCC3C2=O)cc1Cl (centres undefined)	x	x	-1.7	-2.5	-3	-1.6	0.71	i	-1
CC(C)(C)CN1CCC(Oc2cccc(C(=O)N3CCC[C@H]3CO)c2)CC1	3	x	-0.4	1.8	1	-0.4	0.65	i	13
O=C(N/N=C/c1c[nH]c2ccccc12)c1ccccc1O	42	x	-2.5	8.9	-1	-2.8	x	i	-5
COc1ccc(Oc2cccc(Cl)c2CNC(=O)CC(C)(C)CC(=O)O)cc1	1	33%	-4.7	-0.9	-15	-2.3	0.61	i	1
O=C(NCC(=O)N1CCN(C(=O)c2ccco2)CC1)c1ccccc1	-6	x	-3.6	-1.2	-2	-2.9	0.7	i	4
CCC(=O)NC(c1ccc(Cl)cc1Cl)c1ccc2cccnc2c1O (centres undefined)	-3	x	2.0	-11	-22	2.0	x	i	-15
Cc1ccc(CNC(=O)c2ccc(CNS(=O)(=O)c3ccc4c(c3)C(C)(C)C(=O)N4C)cc2)o1	6	x	4.5	3.9	1	0.5	0.68	i	4
Cc1ccc(NC(=O)[C@H](NC(=O)[C@@H]2Cc3ccccc3CN2)c2ccccc2)cc1	-3	x	-2.3	-12	2	3.3	0.64	i	-8
CC(C)OC(=O)c1c(NC(=O)C2CC=CCC2C(=O)O)sc2c1CCCCC2 (centres undefined)	15	x	-8.3	-1.6	-16	-10	0.7	i	-32
CCOc1ccc(CCNC(=O)CSCC(=O)Nc2cccc(C)c2)cc1OCC	-2	-4%	5.4	2.3	0	-0.3	0.71	i	0
COc1cc(C(=O)N/C(=C\c2cn(C)c3ccccc23)C(=O)NCCCO)cc(OC)c1OC	15	x	0.3	-3.2	-4	-10	0.7	i	-5
C[C@@H]1CN([C@@H](C)CO)S(=O)(=O)c2ccc(Br)cc2O[C@H]1CN(C)C(=O)Nc1ccc(C(F)(F)F)cc1	x	1%	-1.9	-3.3	-12&-12	11&22	x	i	-41&-45
COc1ccc(NC(=O)C2CC(=O)N(c3ccc(C)cc3)C2)cc1S(=O)(=O)N1CCCCC1 (centres undefined)	x	x	-1.7	-3.7	4	-1.8	x	i	12

Entries of single compounds, quoted from the list. Order of screens: ALR H2O2 inh, Vif TR-FRET, HNF4A DNA FP, MLL AF4-AF9 inh, rRNA inh HTS, rRNA inh HTS RFP, E coli growth, FGF22 binding, rRNA inh HTS OD600
O=C(NCC(=O)N1CCN(C(=O)c2ccco2)CC1)c1ccccc1 across the screens: -6, x, -3.6, -1.2, -2, -2.9, 0.7, i, 4
CC(C)(C)CN1CCC(Oc2cccc(C(=O)N3CCC[C@H]3CO)c2)CC1 across the screens: 3, x, -0.4, 1.8, 1, -0.4, 0.65, i, 13
CCOc1ccc(CCNC(=O)CSCC(=O)Nc2cccc(C)c2)cc1OCC across the screens: -2, -4%, 5.4, 2.3, 0, -0.3, 0.71, i, 0
Cc1ccc(CNC(=O)c2ccc(CNS(=O)(=O)c3ccc4c(c3)C(C)(C)C(=O)N4C)cc2)o1 across the screens: 6, x, 4.5, 3.9, 1, 0.5, 0.68, i, 4
Cc1ccc(NC(=O)[C@H](NC(=O)[C@@H]2Cc3ccccc3CN2)c2ccccc2)cc1 across the screens: -3, x, -2.3, -12, 2, 3.3, 0.64, i, -8

Remaining list, next part.
Structure	ALR H2O2 inh	Vif TR-FRET	HNF4A DNA FP	MLL AF4-AF9 inh	rRNA inh HTS	rRNA inh HTS RFP	E coli growth	FGF22 binding	rRNA inh HTS OD600
C[C@H](CO)N1C[C@H](C)[C@H](CN(C)C(=O)NC2CCCCC2)OCc2cn(nn2)CCCC1=O	x	x	x	0.1	3	-1.1	x	i	5
CNC[C@@H]1Oc2cc(-c3cccnc3)ccc2S(=O)(=O)N([C@@H](C)CO)C[C@H]1C	x	x	x	-0.8	-1	-0.1	x	i	-2
CCNC(=O)C1CCCN(C(=O)c2ccc3ccccc3c2)CC1 (centres undefined)	x	x	0.6	-8.9	7	0.0	x	i	20
C[C@@H]1CN([C@@H](C)CO)C(=O)Cc2cc(NS(=O)(=O)c3cn(C)cn3)ccc2O[C@@H]1CN(C)C(=O)Nc1ccccc1	1	x	-1.7	-6.2&-0.3	3&14	-2.7&5.1	0.73	i	1&-2
C=C1CCN([C@@H](CC(C)C)C(=O)NCc2ccco2)S(=O)(=O)c2ccccc21	x	x	0.8	-6.6	1	-2.9	x	i	-5
CC(C)(C)[C@H]1C=C(C(=O)N2CCOCC2)O[C@@H](OCc2ccc(CO)cc2)C1	-5	8%	1.6	-1.9&-0.8	9	13	x	i	4
CC(=O)OCC1=C(C(=O)O)N2C(=O)C(NC(=O)c3ccc(COc4ccc(Cl)cc4)o3)C2SC1 (centres undefined)	3	20%	-7.8	-0.8	-4	2.5	0.66	x	-14
N#Cc1ccccc1Sc1ccccc1N	3	-4%	-2.9	3.0	x	x	0.67	i	x
Cc1ccc2nc(N3C(=O)C(O)=C(C(=O)c4ccco4)C3c3ccc(C)o3)sc2c1 (centres undefined)	89*	x	7.4	4.6	4	3.0	x	i	7
CC(=O)c1cccc(NC(=O)Cn2cnc(S(=O)(=O)N3CCc4ccccc43)c2)c1	-9	0%	-1.0	0.0	-7	3.0	0.69	i	-12
COCCN(C(=O)c1ccco1)c1nnc(-c2ccc(F)cc2)s1	x	2%	2.8	-3.3	6	0.8	0.7	i	9
COc1ccc(OC)c(S(=O)(=O)NCCc2csc(-c3cccnc3)n2)c1	-8	-10%	1.7	-25	0	-0.7	0.68	i	-4
O=C(NCCc1cccs1)C1CC(c2ccccc2F)=NO1 (centres undefined)	-4	19%	-1.2	x	x	x	0.69	x	x
COc1ccc(O)c(/C=N/NC(=S)NCCc2ccccc2)c1	31	x	1.4	2.0	-39	-5.3	x	i	-35
CN1C(c2ccc(F)cc2)=CS/C1=C(/C#N)c1nnc2n1-c1ccccc1SC2	x	-4%	-3.9	-1.5	-4	9.2	0.67	i	0
C[C@H]1CN([C@@H](C)CO)C(=O)Cc2cc(N(C)C)ccc2O[C@H]1CN(C)S(C)(=O)=O	x	x	x	-5.9	1	-0.8	x	i	13
CN(c1cccc(NC(=O)CN(c2cccc(Cl)c2)S(=O)(=O)c2ccc(Cl)cc2)c1)S(C)(=O)=O	-1	-5%	1.4	x	x	x	x	x	x
C[C@H](CO)N1C[C@H](C)[C@@H](CN(C)S(=O)(=O)c2ccccc2)OCCCC[C@H](C)Oc2ccc(NC(=O)Nc3ccccc3)cc2C1=O	x	x	x	-2.3	-2	-3.2	x	i	9
COc1ccc(S(=O)(=O)NCC(c2cccnc2)N2CCN(c3ccccc3OC)CC2)cc1C (centres undefined)	x	-1%	0.2	x	x	x	0.75	x	x
CN(c1ccccc1C(=O)NCc1ccccc1Cl)S(=O)(=O)c1ccccc1	1	x	-2.7	-3.5	-26	3.3	0.67	i	-40
CCc1ccc(/C=C2\Oc3c(ccc(O)c3CN3CCN(C)CC3)C2=O)cc1	7	30%	11	5.3	-9	1.1	0.69	i	-6
CCCCCC(=O)N1C[C@H](n2cc(-c3ccc(F)cc3)nn2)[C@@H](O)C[C@@H]1c1ccc(OC)cc1	x	-2%	1.9	1.3	-8	4.2	x	i	-9
COc1ccc(C(=O)O)cc1S(=O)(=O)NCc1ccccn1	-9	0%	-2.0	0.2	2	-6.3	0.71	i	14
Oc1ccccc1Nc1ccccn1	54	6%	3.6	3.3	9	-1.7	0.66	i	1

Only part of the results is shown, so the mix of outcomes need not match the whole.
